Calb biofilm kill = clotrimazole potentiators killing C. albicans biofilm, primary screen, 4-compound mixtures; 120,000 compounds, 0.02% hits; AID 1242, 2008; inhibition, % at 7.6 µM; C. albicans biofilm persisters + clotrimazole, fluorescence viability; primary screen in compound mixtures of four per well;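 active = inhibition above 30.3% in the primary screen of four-compound pools, then above 30% when the compound was retested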;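 note: compounds exposed to preformed 24 h biofilms for 48 h; the number belongs to the whole pool; some results filed as inactive read as strong as hits; inactives centre near 12; 0% = biofilm with clotrimazole alone and 100% = kill control; retested singly at about 60 µM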
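Assay system: C. albicans biofilms / Medium: RPMI/MOPS medium, pH 7.0 / Schedule: biofilm formation 24 h, compound exposure 48 h, 37 °C / Measured by: Alamar Blue fluorescence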
Active calls of the source: *. The list is partial; rates above refer to the full screens.

SMILES | Calb biofilm kill
O=C1CC(N2CCC(c3nc4ccccc4o3)CC2)C(=O)N1 (stereo unspecified) | -0.9
Cc1ccccc1/C=C1\CCCc2ccccc2C1=O | -5.0
Cc1ccc(/C=C/C(=O)Nc2sc3c(c2C#N)CCCC3)o1 | 8.8
Cc1c(Cl)c(C(=O)NC2CCCC2)nn1C | -4.9
COc1cc(/C=N/NC(=O)c2cccs2)ccc1O | 20.5
Cc1ccc(O)c(N=Nc2ccc(S(=O)(=O)N3CCCC3)cc2)c1 | 30.3
Cn1nc(C(=O)OCC(=O)Nc2ccc(S(N)(=O)=O)cc2)c2ccccc2c1=O | 17.7
Cc1cc(C(=O)N/N=C/c2cc([N+](=O)[O-])ccc2O)c2ccccc2n1 | 22.6
CC(=O)Nc1ccc(NC(=O)C(C)OC(=O)c2ccc3c(c2)OCCO3)cc1 (stereo unspecified) | 33.4
CC(C)OC(=O)CSc1nnc(-c2ccccn2)n1N | 16.9
C=CCn1c(O)c(N=NC(=O)CNC(=O)c2cccs2)c2ccccc21 | 13.1
Cc1sc2nc(SCC(=O)N3CCCCC3)[nH]c(=O)c2c1C | 13.8
C/C=C\C(=O)Nc1cccc(C2=NOC3(C2)C[C@H](C(N)=O)N(C(=O)[C@H]2CCC(=O)N2)C3)c1 (stereo partly specified) | 15.8
CC(C)(C)c1ccc(C(=O)Nc2cccc([N+](=O)[O-])c2)cc1 | 10.0
Cc1cccc(-n2ncc3c(N4CCCC4)ncnc32)c1 | 12.8
CC(C)C(=O)N1CCN(c2ccc(NC(=O)c3cccs3)cc2)CC1 | 3.4
COc1cccc(/C=C2\CCc3ccccc3C2=O)c1 | 21.3
O=c1cn[nH]c2ccccc12 | 21.4
CCCc1cc(NCc2ccccn2)n2c(nc3ccccc32)c1C#N | 11.3
CCc1nc2oc3ccccc3c(=O)c2c(=O)n1-c1ccc(C)cc1 | 9.6
O=C(Oc1c(-c2ccccc2)c(=O)n2c3c(cccc13)CC2)c1cccc([N+](=O)[O-])c1 | 11.4
Cc1cnc2ncc3sccc3c2c1 | 4.7
O=C1[C@@H]2[C@@H]3C[C@@H]([C@H]4ON=C(c5ccc(Cl)cc5)[C@@H]34)[C@@H]2C(=O)N1C1CCCCC1 | 3.5
CS(=O)(=O)N1CCC(C(=O)Nc2cc(Cl)ccc2Cl)CC1 | 11.5
O=C(NNS(=O)(=O)c1ccc(Cl)cc1)c1cc(-c2ccccc2)nc2ccccc12 | 16.2
Nc1cccc(-n2cccc2)c1 | 7.5
CC(=O)c1ccc(NC(=O)COc2ccccc2C(=O)Nc2ccc(C)cn2)cc1 | 13.4
CN1CCN(NC(=O)c2cccs2)CC1 | 16.0
O=[N+]([O-])c1ccc(OC(F)F)c(/C=N/n2cnnc2)c1 | -0.7
Cc1[nH][nH]c(=O)c1C=Nc1ccc(C(F)(F)F)cc1 | 11.2
Cc1cc(=O)oc2cc(OCC(=O)OCC(=O)Nc3ccc4ccccc4c3)ccc12 | 4.7
Cc1ccc(C(=O)Cn2nnc(-c3ccccc3)n2)cc1 | 15.2
Nc1nc(-c2cccs2)c(CC(=O)O)s1 | 18.6
COc1ccc2nc(SCC(=O)N3CCCCC3)c(C#N)cc2c1 | -0.8
Fc1ccccc1C1c2cccn2CCN1C(=S)Nc1cccc(Br)c1 (stereo unspecified) | 10.0
CCNc1nc(NC(C)C)nc(N(C#N)CC(=O)OC)n1 | -2.1
COc1ccc(CNC(=O)c2ccc(CNc3c(NC4CCCCC4)c(=O)c3=O)cc2)cc1 | 4.3
O=C(CN1CCOCC1)Nc1ccc2c(c1)OCCO2 | 13.1
CCC(C)(C)n1nnnc1C(c1cccnc1)N1CCCC(C)C1 (stereo unspecified) | 9.6
CCNC(=S)N1CCC(n2cnc3ccccc32)CC1 | 4.2
C=CCOc1c(CNn2nnnc2N)cccc1OC | 10.8
Cn1c(=O)c(C=Nc2ccccc2)c(O)c2ccccc21 | 12.1
CN(C)c1ccc(/C=C/C#N)cc1 | 3.0
Cc1cccc(C(=O)Nc2sc(-c3ccccc3)cc2C(=O)O)c1 | 24.7
CCn1cc(CN2CCN(Cc3ccc(OC)c(C)c3C)C(CCO)C2)c(C)n1 (stereo unspecified) | 17.0
NC(=O)c1ccsc1NC(=O)c1cc(=O)c2ccccc2o1 | 8.3
COc1cccc(-c2noc(CCCC(=O)N3CCOCC3)n2)c1 | 4.1
Cc1ccc(-n2cnnn2)cc1Cl | 13.7
N/C(Cc1ccc([N+](=O)[O-])cc1)=N\OC(=O)COc1ccccc1Cl | 17.2
COc1ccc(OC)c(NC(=O)COC(=O)Cc2ccc(-c3ccccc3)cc2)c1 | 21.1
Cc1ccc(C)c(S(=O)(=O)Nc2ccc(O)c(C(=O)O)c2)c1 | 0.3
C=CCN(CC=C)C(=O)COC(=O)c1ccc(Sc2ncn[nH]2)c([N+](=O)[O-])c1 | 3.7
Cc1cccc(N2CCN(S(=O)(=O)c3cccc4nonc34)CC2C)c1 (stereo unspecified) | 13.4
CC(=O)N1CCC2(CC1)CC(=O)c1cc(OCC(=O)N3CCOCC3)ccc1O2 | 10.8
CCN(CC)C(=O)c1[nH]cnc1C(=O)N[C@@H](CCCCNC(=O)OC(C)(C)C)C(=O)OC(C)(C)C | 19.8
O=c1c(-c2ccco2)[n+]([O-])c2ccccc2n1OCc1ccccc1[N+](=O)[O-] | 11.0
CCn1nnc(NC(=O)c2sc3ccccc3c2Cl)n1 | 14.5
O=C(c1cccs1)N1N=C(c2ccccc2)CC1c1ccccc1O (stereo unspecified) | -4.6
CCCCNC(=O)COC(=O)c1ccc(C)c(NC(=O)c2ccco2)c1 | 9.6
CC(Nc1ccc2c(c1)OCCO2)C(=O)N1CCc2ccccc21 (stereo unspecified) | 5.7

Carrying on:
SMILES | Calb biofilm kill
CNc1nccc(-c2ccc(F)cc2)c1C#N | -1.8
NS(=O)(=O)c1ccc(CCNC(=O)CSc2nc3ccsc3c(=O)n2CC2CCC(C(=O)O)CC2)cc1 (stereo unspecified) | 11.4
N#C/C(C(=O)NCc1ccccc1)=C1/N=C(NC(=O)c2ccco2)c2ccccc21 | 17.6
O=[N+]([O-])c1ccccc1CSc1nnc2ccccn12 | 6.2
NC(=O)c1nnn(-c2nonc2N)c1-c1ccc([N+](=O)[O-])cc1 | 19.8
O=C1N=c2ccccc2=C1c1sc(NS(=O)(=O)Cc2ccccc2)nc1O | 7.5
Cc1ccccc1NC(=S)NCc1cccn1C | 14.9
CCN(C(=O)CN1C(=S)NC(C)(C)CC1C)c1ccc(C)c(C)c1 (stereo unspecified) | 5.5
Cc1ccc(S(=O)(=O)CCSc2nc(C)cc(C(F)(F)F)c2C#N)cc1 | 0.0
COc1cccc(OCCNS(=O)(=O)c2cccc([N+](=O)[O-])c2)c1 | 11.9
CN1CCN(C(=S)Nc2ccc(Cl)c(Cl)c2)CC1 | 17.3
CC1=NN(c2ccc(C)cc2)C(=O)/C1=C\C=C\c1ccccc1 | 8.1
CN(C)S(=O)(=O)c1cc(NC2CC(=O)N(c3ccc(F)cc3)C2=O)ccc1Cl (stereo unspecified) | 1.6
COCCN1C(=O)C(=O)/C(=C(/O)c2ccc(S(=O)(=O)N3CCOCC3)cc2)C1c1cccc(Cl)c1 (stereo unspecified) | 2.9
COc1ccc(CNN2CCCCC2C(=O)Nc2ccc(OC)c(OCC(C)C)c2)cc1OC (stereo unspecified) | 9.1
Nc1cc(=O)[nH]c(SCC(=O)Nc2ccccc2Sc2ccccc2)n1 | 17.9
Cc1ccc(NC(=O)c2ccc(COc3ccc4c(c3)CCC4)cc2)c(C)c1 | 14.3
CN(C)S(=O)(=O)c1ccc(C(=O)OCc2ccc([N+](=O)[O-])cc2)cc1 | 2.9
Fc1ccc(NC(=S)Nc2ccccc2Cl)cc1 | 18.4
COc1cccc(C2=NOC(C(=O)Nc3ccc4c(c3)OCO4)C2)c1 (stereo unspecified) | 10.6
CC(=O)NC1=NN(C(C)=O)C(c2ccc(C)cc2)S1 (stereo unspecified) | 50.4
OC(c1ccccc1)C(CN1CCOCC1)c1ccccc1 (stereo unspecified) | 24.9
CC1CC(C)CN(S(=O)(=O)c2ccc(C(=O)OCC(=O)NCCN3C(=O)CSC3=O)cc2)C1 (stereo unspecified) | 13.8
Cc1cccc(C)c1NC(=O)C(=O)NCCc1c[nH]c2ccccc12 | 4.3
Cc1cc(C)cc(NC(=O)c2ccc(NC(=O)C3C4CC5OC(=O)C3C5C4)cc2)c1 (stereo unspecified) | 20.1
CC(C)(C)NC(=S)NC(=O)C12CCC3CC(CC(C3)C1)C2 | 13.7
O=c1cc(-c2ccccc2)c2cc(Cl)c(O)c(CN3CCOCC3)c2o1 | 6.9
O=C(CSc1nnnn1CCCO)Nc1ccc2c(c1)OCO2 | 19.5
CC(=O)c1cnc2c(-c3ccc(Cl)cc3)cnn2c1C | 16.7
NC(=O)c1ccsc1NC(=O)CCS(=O)(=O)c1ccccc1 | 6.5
O=C(c1ccc(CSc2nc3ccncc3[nH]2)cc1)N1CCN(c2cccc(Cl)c2)CC1 | 1.8
COc1ccc(CC(=O)N2CCC(c3ccccc3)C2)cc1 (stereo unspecified) | 10.1
N#CCCn1cc(C(=O)Nc2ccc([N+](=O)[O-])cc2)c(-c2cc3ccccc3o2)n1 | 10.8
Cc1ccccc1-c1nnc(NC(=O)CSc2nc3ccccc3s2)s1 | 18.3
CCOCCOc1nc(C)cc(C)c1S(=O)(=O)c1ccccc1C | 13.5
C=CCOc1ccc(CNCCc2ccc(S(N)(=O)=O)cc2)cc1 | 7.5
C[C@H](NC(=O)Cc1cccc2ccccc12)C(=O)NCc1ccccc1 | 9.7
O=C(Nc1ccc(F)cc1)/C(Cl)=C/c1ccccc1 | 9.4
CN(C)/C=N/c1nc2nccc(-c3ccccc3)n2n1 | 3.5
O=C(Nc1ccccc1)Nc1ccncc1 | 5.8

A second format for four compounds above:
Molecule: O=c1cc(-c2ccccc2)c2cc(Cl)c(O)c(CN3CCOCC3)c2o1
  Calb biofilm kill: 6.9
Molecule: O=C(CSc1nnnn1CCCO)Nc1ccc2c(c1)OCO2
  Calb biofilm kill: 19.5
Molecule: CC(=O)c1cnc2c(-c3ccc(Cl)cc3)cnn2c1C
  Calb biofilm kill: 16.7
Molecule: NC(=O)c1ccsc1NC(=O)CCS(=O)(=O)c1ccccc1
  Calb biofilm kill: 6.5

The list continues.
SMILES | Calb biofilm kill
Cc1ccc(NC(=O)C(=O)NCc2ccncc2)cc1 | 19.2
O=C(O)c1ccc(N2C(=O)CCCC2=O)cc1 | 20.9
O=C(CNc1n[nH]c(=O)[nH]c1=O)N/N=C/c1cccnc1 | 12.8
CCOC(=O)C1CCN(C(=O)/C=C/c2cccs2)CC1 | 2.0
S=c1[nH]nc(-c2ccco2)n1/N=C/c1cccc(Cl)c1Cl | 20.8
CSc1nccc(Oc2ccc(C#N)cc2)n1 | 14.1
O=C(CN1CCN(Cc2ccccc2)CC1)Nc1ccc(N2CCOCC2)cc1 | 9.5
COc1cccc(C=Nc2cc(C)cc(C)c2)c1O | 8.0
CCOC(=O)N(NC(=O)C(O)(c1ccccc1)c1ccccc1)c1ccccc1 | 15.9
CCN1CCN(Cc2ccc(NC(=O)c3ccc(C)c(NC(=O)N4CCNC4=O)c3)cc2C(F)(F)F)CC1 | 14.1
O=C(c1cc(F)ccc1F)C1CCCN(C(=O)CCN2CCCCO2)C1 (stereo unspecified) | 7.5
Cc1nn(-c2ccccc2)c(/N=C/c2ccccc2O)c1-c1ccccc1 | 11.8
CCOc1cc(NC(=S)NC)c(OCC)cc1NC(=O)c1cccs1 | 19.4
CCN(CC)c1ccc2cc(C(N)=O)c(=O)oc2c1 | 14.4
N#Cc1cnn2ccn(C3OC(CO)C(O)C3O)c12 (stereo unspecified) | 13.5
Cc1nn(S(=O)(=O)c2ccc(Cl)cc2)c(C)c1Sc1ccc([N+](=O)[O-])cc1 | 8.4
CC(C)n1cnc2c(Nc3ccc(C(=O)O)cc3)nc(Cl)nc21 | 9.2
O=C(CSc1nc(-c2ccccc2)ns1)N1CCOCC1 | 19.0
Cc1ccc(NC2c3ncccc3C(=O)N2Cc2cccs2)cc1 (stereo unspecified) | 5.1
O=C(Nc1cnccn1)Nc1ccc(Cl)cc1Cl | 12.2
CCN1CCN(CC(=O)N2N=C(c3cccs3)CC2c2ccc(C)cc2)C(=O)C1=O (stereo unspecified) | 0.1
CCOC(=O)c1cnc(-n2nc(C)cc2C)nc1NC1CCCC1 | 11.9
COc1ccc(C(CC(=O)c2ccccc2)S(=O)(=O)c2ccccc2)cc1 (stereo unspecified) | 5.4
OC(CNCc1ccc(Cl)c(Cl)c1)c1ccccc1 (stereo unspecified) | 7.0
CC1(C(=O)OCC(=O)N2c3ccccc3Sc3ccccc32)CC1(Cl)Cl (stereo unspecified) | -8.2
Cc1ccc(-n2c(C)cc(C(=O)COC(=O)c3ccc[nH]c3=O)c2C)cc1 | 1.5
O=C(Nn1cnnc1)c1cccc(S(=O)(=O)N2CCOCC2)c1 | 8.6
O=C(CCN1CCOCC1)c1ccc(Cl)cc1 | 21.7
COC(=O)/C=C1\N/C(=N\c2nc(C)cc(C)n2)N(c2ccc(C)c(C)c2)C1=O | -11.6
O=C(COC(=O)c1ccc(CO)cc1)NCc1cccs1 | 6.3
O=C(N=Nc1c(O)[nH]c2ccc(Br)cc12)c1cc(-c2cccc3ccccc23)n[nH]1 | 15.0
Cc1ccc(S(=O)(=O)N2CCOCC2)cc1NC(=O)CSc1cccc[n+]1[O-] | 17.4

Some of the entries above in a different format:
mol: CCOC(=O)c1cnc(-n2nc(C)cc2C)nc1NC1CCCC1
  Calb biofilm kill = 11.9
mol: COc1ccc(C(CC(=O)c2ccccc2)S(=O)(=O)c2ccccc2)cc1 (stereo unspecified)
  Calb biofilm kill = 5.4
mol: OC(CNCc1ccc(Cl)c(Cl)c1)c1ccccc1 (stereo unspecified)
  Calb biofilm kill = 7.0
mol: CC1(C(=O)OCC(=O)N2c3ccccc3Sc3ccccc32)CC1(Cl)Cl (stereo unspecified)
  Calb biofilm kill = -8.2
